# Assay outcomes deposited in PubChem by National Center for Advancing Translational Sciences (NCATS).
# Six1-Eya2 inh: qHTS Assay for Inhibitors of the Six1/Eya2 Interaction; Homeobox protein SIX1 (Homo sapiens) + Protein phosphatase EYA2 (Homo sapiens), …; AlphaScreen GST-Six1/His-Eya2 binding, biochemical; stronger effect = lower value; control for the full effect not named in the record; activity change, % (concentration not given with the values); 360,000 compounds, 0.56% hits; AID 651725, 2012; in the data active = activity change below about -65%; inconclusive = about -30% to -65%; inactive = above about -30%; further: on the % scale 0 is the no-effect control and ±100 the full control effect
#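 GST-Six1 + His-Eya2 (5X stock: 250/500 nM); Tris pH 8.0, 300 mM NaCl, 0.05% BSA, 0.02% Tween 20; GSH donor/Ni acceptor beads; 1 h 37 °C dark; AlphaScreen readout.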
# CtBP-E1A inh: qHTS Assay for Inhibitors of the CtBP/E1A Interaction. CtBP / adenovirus E1A interaction (AlphaScreen). AlphaScreen GST-E1A/His-CtBP binding, 1536-well; stronger effect = lower value; control for the full effect not named in the record. activity change, % (no concentration beside the values). 340,000 compounds, 0.49% hits; in the data active means activity change below about -65%; inconclusive means about -30% to -65%; inactive means above about -30%; further: on the % scale 0 is the no-effect control and ±100 the full control effect
#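 In 5 uL wells, 23 nL compound meets equimolar GST-E1A and His-CtBP (5X stock 125 nM each) for 2 h, 37 °C. Beads (5X, 50 ug/mL) then 1 h, 37 °C, dark.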
# PINK1 modulator: A Quantitative High throughput Screen to Identify Chemical Modulators of PINK1 Expression. PINK1 immunofluorescence, high-content cytometry, 24 h. Potency, µM (top dose mostly 76.6 µM), for the others: at the top dose activation (PINK1 increase), actives largely listed as activators. 410,000 compounds, 0.2% hits. AID 624263, 2012; active = well fitted activation curve with a large enough effect; inconclusive = small, poorly fitted or top-dose-only effect; inactive = flat fitted curve, though single readings scatter; cell line not stated here;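 further: potency means the concentration at half of the fitted maximal effect; % of control where 0% means no effect; nearly all actives have a fitted effect of over 65% in size; a mitochondrial uncoupler was the plate control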
#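 PINK1 protein level read as immunofluorescence by microplate cytometer in a fixed, stained stable cell line after 24 h exposure to five compound concentrations, with CCCP as control.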
# TRPML1 agonist: qHTS for Agonists of the Human Mucolipin Transient Receptor Potential 1 (TRPML1). TRPML1-expressing cells, Ca2+ dye fluorescence, FDSS; host cell line not named in the record; reference of the full effect not given here. activation, % (concentration not given with the values). 410,000 compounds, 0.12% hits; in the data active = activation above about 50%; inconclusive = about 30% to 50%; inactive = below about 30%; further: 0% is about no effect; the text of the record puts the active cut at 80%
# Target sequence (Q9GZU1 whole entry, looked up): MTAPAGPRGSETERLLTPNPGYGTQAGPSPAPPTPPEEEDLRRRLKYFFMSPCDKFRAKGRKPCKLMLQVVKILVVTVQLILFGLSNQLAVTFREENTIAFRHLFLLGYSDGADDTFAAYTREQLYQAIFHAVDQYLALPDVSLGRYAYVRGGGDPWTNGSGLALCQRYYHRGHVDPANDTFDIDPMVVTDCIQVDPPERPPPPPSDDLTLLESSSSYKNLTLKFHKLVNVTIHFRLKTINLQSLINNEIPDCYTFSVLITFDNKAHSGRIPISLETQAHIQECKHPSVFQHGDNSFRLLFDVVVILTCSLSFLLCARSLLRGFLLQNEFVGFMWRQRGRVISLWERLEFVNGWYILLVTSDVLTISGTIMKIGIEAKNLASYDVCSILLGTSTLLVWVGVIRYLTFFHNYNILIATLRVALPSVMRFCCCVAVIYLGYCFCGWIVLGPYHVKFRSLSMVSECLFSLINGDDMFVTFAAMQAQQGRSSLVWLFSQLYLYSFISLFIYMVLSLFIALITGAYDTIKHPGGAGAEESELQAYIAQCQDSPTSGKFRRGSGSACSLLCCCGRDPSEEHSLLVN
#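 Calcium fluorescence on an FDSS kinetic reader gave the read-out. Tet-induced TRPML1-DL cells were plated overnight, dye-loaded (Ca8 with quencher, 45-90 min, room temperature, dark), then read 110 s after compound addition, and again 110 s after 4uM final 54-4 (EC80).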
# D2 potentiator: Beta-Arrestin HTS for Positive Allosteric Modulators of the Human D2 Dopamine Receptor: Potentiators; AID 624464, 2012; 360,000 compounds, 0.23% hits; DiscoveRx D2 beta-arrestin cells, luminescence, 90 min; 100% = 57 uM dopamine signal; potentiation, % (test concentration not listed); active = potentiation of 50% or more; inconclusive = 30% to 50%; inactive = 30% or less;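 further: compound concentration not given in the record; tested on top of an EC20 dose of dopamine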
# Target sequence (P14416 whole entry, looked up): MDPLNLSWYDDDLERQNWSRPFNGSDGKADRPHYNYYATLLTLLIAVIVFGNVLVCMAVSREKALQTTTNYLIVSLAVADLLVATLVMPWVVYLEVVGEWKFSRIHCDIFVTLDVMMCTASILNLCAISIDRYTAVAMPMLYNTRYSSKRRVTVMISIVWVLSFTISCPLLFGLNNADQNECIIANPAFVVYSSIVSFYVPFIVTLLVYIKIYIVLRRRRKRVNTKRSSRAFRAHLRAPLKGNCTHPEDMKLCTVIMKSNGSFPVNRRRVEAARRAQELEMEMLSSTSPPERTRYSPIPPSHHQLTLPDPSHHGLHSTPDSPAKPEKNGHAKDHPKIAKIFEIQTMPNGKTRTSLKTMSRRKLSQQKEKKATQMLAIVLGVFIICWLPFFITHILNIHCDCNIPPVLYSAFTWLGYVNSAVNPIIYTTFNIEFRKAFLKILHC
#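 PathHunter beta-arrestin assay in DiscoveRx D2 cells. Compounds were added with an EC20 of dopamine (50 nM final) for 90 min at 37 deg C. Luminescence was read 1 h after detection reagent, with 57 uM dopamine as the EC100 control.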
# D2 ag: Beta-Arrestin HTS for Positive Allosteric Modulators of the Human D2 Dopamine Receptor: Agonists; activation, % (no concentration beside the values); AID 624465, 2012; 360,000 compounds, 0.084% hits; D(2) dopamine receptor (Homo sapiens), P14416; DiscoveRx PathHunter D2 beta-arrestin, luminescence, 90 min; 100% = 57 uM dopamine signal; in the data active = activation above about 40%; inconclusive = about 15% to 40%; inactive = below about 15%; further: compound concentration not given in the record; the text of the record calls up to 30% inactive
#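 Agonist mode: compounds alone added to overnight-plated D2 PathHunter cells for 90 min at 37 C, with 57 uM final dopamine (EC100) defining full response. Beta-arrestin recruitment detected by chemiluminescent reagent, read after 1 h at ambient temperature.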
# An asterisk follows results filed as active; ? = inconclusive; . = no result given; & = joins results of further samples; [ ] = another dose, or the depositor's remark.
1. O=C(CSCc1ccc(F)cc1)Nc1ccc(F)cc1
2. C=CCc1ccc(OCCOCCOc2cccc3ccc(C)nc23)c(OC)c1
3. CC(NCc1ccccc1OC1CCCC1)c1ccccc1 (stereo unspecified)
4. Cc1cc2c(cc1C)C(c1ccccc1OC(C)C)CC(=O)N2 (stereo unspecified)
5. CCc1ccc(N2C(=O)CN(Cc3cc(OC)c(OC)c(OC)c3)C2=S)cc1
6. CCN(CC1COc2ccccc2O1)C(=S)Nc1ccccc1 (stereo unspecified)

Compound	1	2	3	4	5	6
Six1-Eya2 inh	-4	-4	6	-5	-6	4
CtBP-E1A inh	1	-2	7	-1	4	7
PINK1 modulator	0.3%	-0.8%[38.3 µM]	4.2%	0.2%	14%	8.3%[38.3 µM]
TRPML1 agonist	-0.3	1.8	2.8	1.3	1.0	0.4
D2 potentiator	-13	-4	-8	0	22	-7
D2 ag	-2.0	-1.8	-2.1	-0.1	11	0.1

7. C=CCOc1c(Br)cc(CNc2ccc(NC(=O)C(C)C)c(OC)c2)cc1OC
8. CC1CCN(c2ncnc3c2cnn3Cc2ccc(Cl)cc2)CC1
9. CCc1nnc(NC(=O)CN2CCN(C3CCCCC3)CC2)s1
10. O=C1NC(=S)S/C1=C\c1cc(Cl)cc(Cl)c1O
11. CCCc1cc(=O)oc2cc(C)cc(OCC(=O)NC(Cc3c[nH]c4ccc(O)cc34)C(=O)O)c12 (stereo unspecified)
12. Cc1nc(C(=O)Nc2ccccc2)sc1C1(C)CC(c2cccnc2)=NO1 (stereo unspecified)

Compound	7	8	9	10	11	12
Six1-Eya2 inh	?	4	2	?	2	-2
CtBP-E1A inh	-26	4	2	?	-4	.
PINK1 modulator	1.7%[38.3 µM]	4.3%	-1.6%[38.3 µM]	1.5%	0.7%	0.5%
TRPML1 agonist	1.6	5.9	0.8	15	.	0.4
D2 potentiator	-4	1	-5	-30	-2	-14
D2 ag	-1.2	-2.1	0.3	-6.4	-3.9	0.0

13. CC1CCCC(NC(=O)C2N(CCCN3CCCC3)C(=O)C3C(C(=O)Nc4cccc(Cl)c4)C4C=CC32O4)C1C (stereo unspecified)
14. Cc1nc2ccccc2c(=O)n1-c1ccc(F)c(NS(=O)(=O)c2ccccc2F)c1
15. CN(Cc1ccccc1)C(=O)c1ccco1
16. Cn1c(=Nc2ccc(N3CCOCC3)cc2)ccc2ccccc21
17. CC(NC(=O)Cn1c(NCCO)nc2ccccc21)C1CC2CCC1C2 (stereo unspecified)
18. CC(C)=C1C2CC2C2C(C(=O)O)C12 (stereo unspecified)

Compound	13	14	15	16	17	18
Six1-Eya2 inh	-2	0	4	-3	6	-3
CtBP-E1A inh	-16	2	1	-1	.	9
PINK1 modulator	0.8%	0.3%	0.1%	3.1%	-1.1%	3.6%
TRPML1 agonist	-0.3	-0.9	-0.4	-0.4	0.4	-0.4
D2 potentiator	-16	?	3	-7	-14	3
D2 ag	-0.3	-3.1	-8.1	0.5	-0.7	-4.0

# Some of the entries above in another layout.
no.	smiles	Six1-Eya2 inh	CtBP-E1A inh	PINK1 modulator	TRPML1 agonist	D2 potentiator	D2 ag
15	CN(Cc1ccccc1)C(=O)c1ccco1	4	1	0.1%	-0.4	3	-8.1
16	Cn1c(=Nc2ccc(N3CCOCC3)cc2)ccc2ccccc21	-3	-1	3.1%	-0.4	-7	0.5
17	CC(NC(=O)Cn1c(NCCO)nc2ccccc21)C1CC2CCC1C2 (stereo unspecified)	6	.	-1.1%	0.4	-14	-0.7
18	CC(C)=C1C2CC2C2C(C(=O)O)C12 (stereo unspecified)	-3	9	3.6%	-0.4	3	-4.0

# Continued.
19. CCOc1ccc(-c2nn[nH]n2)cc1
20. COc1ccccc1NC(=O)NC1(C(=O)N2CCCCCC2)CCCCC1
21. CCOC(=O)C1=C(C)NC(=O)NC1c1cc(C)sc1C (stereo unspecified)
22. O=C(NCCOC(=O)c1ccccc1)c1ccccc1
23. CCC(C)(C)n1nnnc1C(c1cc2cc(C)cc(C)c2[nH]c1=O)N1CCN(Cc2ccc3c(c2)OCO3)CC1 (stereo unspecified)
24. Cc1ccsc1C(=O)OCC(=O)N1CCOCC1

Compound	19	20	21	22	23	24
Six1-Eya2 inh	1	15	-3	-5	3	-1
CtBP-E1A inh	3	-5	18	.	10	0
PINK1 modulator	1.3%	-1.1%	0.8%	3.7%	19%	-1.7%
TRPML1 agonist	-0.5	-0.5	-1.0	-0.4	0.1	0.8
D2 potentiator	9	-10	0	-1	-26	-10
D2 ag	-2.6	0.8	-2.6	-2.0	-0.4	-5.3

25. Oc1ccc(CNc2ccc(F)cc2)c2cccnc12
26. Cc1noc(N)c1C(=O)Nc1ccc(F)c(Cl)c1
27. O=C(NCc1ccco1)C1CC(c2ccc(Cl)cc2)=NO1 (stereo unspecified)
28. COc1cc2c(cc1OC)CN(C(=S)Nc1ccc(C)cc1C)CC2
29. Cc1ccc(NC(=O)c2cc(-c3cccs3)nc3ccccc23)nc1
30. CN(C)CCNC(=O)c1ccc2c(=O)n(Cc3ccc(Cl)cc3)c(=S)[nH]c2c1

Compound	25	26	27	28	29	30
Six1-Eya2 inh	-90*	4	-5	-1	1	2
CtBP-E1A inh	-90*	3	1	-5	22	-23
PINK1 modulator	0.6%	1.5%	5.4%	-0.2%	5.3%	-3.1%
TRPML1 agonist	1.4	-1.5	-0.6	1.4	1.1	2.0
D2 potentiator	?	-6	-7	-13	8	-7
D2 ag	-2.6	-0.8	0.8	1.0	-1.0	-3.1

31. O=S(=O)(Nc1cccc(-n2cnnn2)c1)c1ccc(Cl)cc1
32. O=C(Nc1cccc(F)c1)Nc1nnc([C@@H]2C[C@H](O)[C@@H](CO)O2)s1
33. CN(C)C(CNC(=O)Cc1cccc(C(F)(F)F)c1)c1ccco1 (stereo unspecified)
34. COc1ccc(-c2cnc(C(O)c3ccc(CN4CCCCC4)cc3)[nH]2)cc1 (stereo unspecified)
35. N=C1/C(=C/c2cccs2)C(=O)N=C2SN=C(SCc3ccccc3)N12
36. O=S(=O)(CC(CN1CCOCC1)N1CCOCC1)c1ccccc1 (stereo unspecified)

Compound	31	32	33	34	35	36
Six1-Eya2 inh	6	4	-2	-13	3	-2
CtBP-E1A inh	3	6	2	-8	-3	.
PINK1 modulator	-1.4%	-0.5%	2.0%	-0.5%	?	1.0%
TRPML1 agonist	0.4	-0.5	1.5	-0.5	-0.8	0.1
D2 potentiator	-2	-1	-8	-6	-13	-3
D2 ag	0.9	1.2	-0.7	1.8	0.9	0.6

37. CC[n+]1c(/C=C/c2ccc(OC)c(OC)c2)ccc2ccccc21
38. Cn1cc(-c2ccccc2C(=O)O)c(=O)c2ccccc21
39. O=S1(=O)N[C@@H](CC2CCCCC2)COc2cc(Br)ccc21
40. Cn1cc(CN2CCC(C(=O)N3CCCCC3)CC2)c(-c2ccccc2F)n1
41. CCN(CC)C(=S)Nc1ccc(C(=O)OC)cc1
42. CCn1c2ccccc2c2cc(NC(=O)CSc3nccc(=O)[nH]3)ccc21

Compound	37	38	39	40	41	42
Six1-Eya2 inh	10	-6	1	11	4	-19
CtBP-E1A inh	.	-1	5	-16	-16	0
PINK1 modulator	2.1%	0.8%	3.0%	0.2%	2.4%	2.0%
TRPML1 agonist	2.0	0.8	-0.9	-0.5	-0.4	-0.3
D2 potentiator	-12	-14	-6	-7	3	-5
D2 ag	-4.3	-1.7	-2.3	-1.5	-3.0	-4.5

43. Cc1ccc2nc(S(=O)(=O)O)[nH]c2c1
44. COC(=O)C[C@H]1c2cc(F)ccc2S(=O)(=O)N1c1ccccc1
45. N#CCOC(=O)C1CSC2(c3ccc(Br)cc3)CCC(=O)N12 (stereo unspecified)
46. CCOC(=O)C1=CCN(S(=O)(=O)c2ccc(C)cc2)C1c1ccccc1 (stereo unspecified)
47. COc1ccc(CNC(=O)C2CCCN(S(=O)(=O)c3c(C)nn(C)c3C)C2)cc1 (stereo unspecified)
48. NC(=O)c1c(NC(=O)CN2CCCC2)sc2c1CCCC2

Compound	43	44	45	46	47	48
Six1-Eya2 inh	1	11	2	9	-8	-7
CtBP-E1A inh	4	-25	13	13	-1	-8
PINK1 modulator	-2.8%[38.3 µM]	-0.9%	6.3%	1.5%	5.8%	-0.5%
TRPML1 agonist	0.6	0.3&-0.8	-0.4	0.8	-0.3	0.1
D2 potentiator	0	-2	-2	-5	-1	-8
D2 ag	-1.7	7.0	-6.3	-3.1	-1.4	-3.0

49. CCOc1cccc(/C=C/c2ccc3cccc(O)c3n2)c1OC
50. COc1cccc(/C=N/NC(=O)CSc2ccccc2C)c1O
51. CC(C(=O)Nc1ccc2c(c1)OCCO2)N(C)CC(=O)Nc1ccccc1Br (stereo unspecified)
52. COc1ccc(C(=O)OCCN2CCCCC2)cc1
53. CC(=O)Nc1ccc(NC(=O)CSc2ccc3nnc(CCNS(=O)(=O)c4ccc(C)cc4)n3n2)cc1
54. O=C(NCc1c[nH]c2ccccc12)c1ccccc1

Compound	49	50	51	52	53	54
Six1-Eya2 inh	-12	?	0	-5	0	1
CtBP-E1A inh	-1	-3	-2	6	0	2
PINK1 modulator	1.6%	-1.2%	0.2%	-2.6%	0.8%	1.9%
TRPML1 agonist	1.7	-0.8	0.3	2.1	1.6	1.5
D2 potentiator	-18	-11	-6	-23	-16	-1
D2 ag	-16	-6.1	-0.4	-0.4	6.9	3.8

55. COc1ccc(NC(=O)c2ccccc2SC)c(OC)c1
56. CCN1CCCC1CNC(=O)C(=O)Nc1ccccc1OC (stereo unspecified)
57. N#CC(C(=O)NC1CCCCC1)c1nc2ccccc2nc1N1CCN(c2ccccc2F)CC1 (stereo unspecified)
58. Cc1cc(C)n2nc(SCC(=O)N3CCN(c4ccccc4)CC3)nc2n1
59. Cn1cc([N+](=O)[O-])c(C(=O)Nc2ccc(C(=O)N3CCCCC3)cc2)n1
60. CCCCCCCNc1cccc(C)c1

Compound	55	56	57	58	59	60
Six1-Eya2 inh	2	6	2	-8	22	2
CtBP-E1A inh	6	11	2	10	4	-4
PINK1 modulator	0.1%	.	0.1%	-2.1%	-3.4%	15%
TRPML1 agonist	-0.2	-0.2	1.2	0.4	0.3	0.0
D2 potentiator	-4	-12	7	0	-6	-4
D2 ag	-0.2	1.6	-1.8	-1.1	-2.8	-5.3

61. CN1C(=O)C2(C(C#N)=C(N)Oc3c2oc(CO)cc3=O)c2ccccc21 (stereo unspecified)
62. COC(=O)/C(=C\c1cc(OC)c(OC)c(OC)c1)c1nc2ccccc2[nH]1
63. CC(C)N1CC2(CC(c3ccc(Cl)cc3Cl)=NO2)CN1C(=O)c1ccc(C(C)(C)C)cc1 (stereo unspecified)
64. Cc1ccccc1CN1CCN(S(=O)(=O)c2cccc3nsnc23)CC1

Compound	61	62	63	64
Six1-Eya2 inh	2	-3	6	-21
CtBP-E1A inh	8	4	3	-13
PINK1 modulator	.	-0.7%	-0.5%	-0.3%
TRPML1 agonist	-0.6	-0.6	-0.4	2.4
D2 potentiator	4	-6	4	-11
D2 ag	0.1	-1.0	0.6	-2.8
